From PubChem
VDR inh = Inhibitors of the vitamin D receptor (VDR): qHTS. VDR-SRC2-3 peptide fluorescence polarization, 2 h. actives 0.93% (n = 400,000). AID 504847, 2011. Potency, µM, for inactives: max response, negative = inhibition, actives largely listed as inhibitors; active = well fitted inhibition curve with a large enough effect; inconclusive = small, poorly fitted or top-dose-only effect, or another doubt; inactive = no such curve, though single readings can be large or run the other way; also: series mostly up to about 120 µM
Target sequence (P11473 whole entry, looked up): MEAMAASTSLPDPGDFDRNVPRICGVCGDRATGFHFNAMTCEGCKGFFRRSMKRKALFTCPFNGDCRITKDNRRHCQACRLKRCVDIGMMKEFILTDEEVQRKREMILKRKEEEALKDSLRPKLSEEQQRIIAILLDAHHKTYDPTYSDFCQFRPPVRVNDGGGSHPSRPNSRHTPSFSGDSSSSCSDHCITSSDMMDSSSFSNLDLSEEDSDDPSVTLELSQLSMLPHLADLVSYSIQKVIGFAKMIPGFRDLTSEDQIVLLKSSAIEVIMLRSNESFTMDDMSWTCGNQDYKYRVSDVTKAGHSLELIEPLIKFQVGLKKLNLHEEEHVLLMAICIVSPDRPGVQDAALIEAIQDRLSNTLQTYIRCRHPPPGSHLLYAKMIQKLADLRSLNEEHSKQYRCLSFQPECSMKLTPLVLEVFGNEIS
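The screen uses fluorescence polarization to detect compounds that interfere with recruitment of the SRC2-3 coactivator peptide to VDR; plates are read after 2 h at room temperature.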
Starred values were filed as active, the others as inactive; ? = inconclusive. % is scaled to controls: 0 for no effect and ±100 for the full control effect; potency is read from the fitted curve at half-maximal effect. A portion of the library; the hit share may differ from the screen's.

SMILES	VDR inh
COc1ccc(CCNC(=O)CCn2c(SCC#N)nc3ccccc3c2=O)cc1OC	-1%
O=S(=O)(NCc1cccnc1)c1cccc2cccnc12	1%
O=[N+]([O-])c1ncn(Cc2c(Cl)cccc2Cl)n1	-11%
CC(=O)Nc1cccc(N(C)S(C)(=O)=O)c1	-2%
O=C(OCC12CC3CC(CC(C3)C1)C2)c1ccc(NCc2cc(O)ccc2O)cc1	6%
CC1OC(Oc2c(-c3cc(O)c(O)c(O)c3)oc3cc(O)cc(O)c3c2=O)C(O)C(O)C1O (stereo unspecified)	-9%
O=C(O)CC1(CC(=O)NCc2cccc(Cl)c2)CCCCC1	13%
CC(C)c1cc(C(N)=O)c(NC(=O)c2cccc(COc3ccc(Br)cc3)c2)s1	15%
O=C(N/C(=C\c1cccc([N+](=O)[O-])c1)C(=O)N1CCOCC1)c1ccco1	-21%
CCCCc1ccc(NC(=S)N2CCN(c3ncccn3)CC2)cc1	11%
Clc1ccc(CSc2nnc(-c3c[nH]c4ccccc34)o2)cc1	23%
Cc1ccccc1NC(=S)N(CCCN1CCOCC1)Cc1cccs1	6%
COc1ccc(CCNC(=O)Cc2ccc(NC(=O)N3CCSc4ncccc43)cc2)cc1OC	9%
c1ccc(-c2csc(-c3nc4ccccc4[nH]3)n2)cc1	1%
O=C(Cn1nc(Cc2cccnc2)c2ccccc2c1=O)N1CCN(c2ccccn2)CC1	-4%
COc1ccc(CCN(C)C(=O)CN2C(=O)NC3(CCCc4ccccc43)C2=O)cc1OC (stereo unspecified)	0%
Nc1nc(SCC(=O)NCCCO)nc2sc3c(c12)CCC3	11%
Cc1ccccc1OCC(=O)Nc1ccc2c(c1)OCCO2	?
COc1cccc2cc(C(=O)NCc3ccccc3Cl)c(=O)oc12	6%
CCOc1ccccc1NC(=O)C1CCCN1C(=O)c1cccs1 (stereo unspecified)	2%
O=c1c(OC2OC(CO)C(O)C(O)C2OC2OC(CO)C(O)C(O)C2OC2OC(CO)C(O)C(O)C2O)c(-c2ccc(O)c(O)c2)oc2cc(O)cc(O)c12 (stereo unspecified)	-9%
Cn1c(=S)[nH]c2scc(-c3cccs3)c2c1=O	-23%
COc1cc(C2CC(=O)N(Cc3ccc(F)cc3)c3ccccc3S2)cc(OC)c1OC (stereo unspecified)	-21%
COc1cc(C(=O)N2CCN(S(=O)(=O)c3ccc(C)cc3C)CC2)ccc1OCC(=O)N1CCOCC1	4%
O=C(O)c1ccc(S(=O)(=O)Nc2cccc(CP(=O)(c3ccccc3)c3ccccc3)c2)cc1	5%
O=C(CCc1ccccc1)NC1CC(=O)N(c2ccccc2)C1 (stereo unspecified)	10%
N#C/C(=C/c1cccn1-c1cccc(C(=O)O)c1)c1ccc(Cl)cc1	?
C=CCOC(=O)C1(C(NC(=O)OC)c2ccccc2)C(=O)Cc2ccccc21 (stereo unspecified)	-20%
CCC(C)N(CCNC(=O)c1ccc2c(c1)NC(=O)c1ccccc1S2)C1CCCCC1 (stereo unspecified)	12%
O=C(Cn1c(SCCOc2ccccc2)nc2ccccc21)N1CCOCC1	7%
CC(=O)c1ccc(NC(=O)COc2ccccc2-c2nc(-c3ccc(C)cc3)no2)cc1	15%
COc1ccccc1C(=O)n1nc(-c2ccccc2)nc1NCc1ccc(Cl)cc1	-7%
COc1ccc(-c2csc(=Nc3c(C)n(C)n(-c4ccccc4)c3=O)n2C(C)(C)C)cc1	-7%
CCOC(=O)c1cccc(NC(=O)CSc2nnnn2CC)c1	2%
CCOC(=O)COc1ccccc1/C=N/Nc1nnc2c3ccccc3n(C)c2n1	-1%
COc1ccc(-n2c(O)c(Cc3ccccc3)c(=O)n3nc(-c4ccccc4)c(=O)cc23)cc1	5%
CCc1ccc(CNC(=O)C(CC)n2ccc3cc(S(=O)(=O)N4CCCCC4)ccc32)cc1 (stereo unspecified)	15%
CCc1ccc(-n2nc(CO)c(C(=O)NCc3cccnc3)n2)cc1	8%
Cc1ccc(Cn2c(CN3CCN(C(=O)c4ccco4)CC3)nc3c2c(=O)n(C)c(=O)n3C)cc1	-1%
O=C1CSC(c2ccc(Cl)cc2)N1 (stereo unspecified)	5%
COCCCNC(=O)c1c(-c2ccccc2)c(-c2ccccc2)nn(C)c1=O	-9%
COC(=O)c1c(NC(=O)C2C3CCC(O3)C2C(=O)O)sc2c1CCCCCC2 (stereo unspecified)	-9%
CCCCn1c(SCC(=O)NC(C)CC)nc2ccc(N3CCOCC3)cc2c1=O (stereo unspecified)	-17%
C[C@@H](C(=O)N1CCN(c2ccccc2)CC1)N1C(=O)C2CC=CCC2C1=O (stereo partly specified)	-1%
Clc1ccccc1N1CCN(Cc2ccco2)CC1	-19%
Cc1ccccc1NC(=S)NC(NC(=O)N(C)C)C(Cl)(Cl)Cl (stereo unspecified)	-2%
COc1ccc(CCNC(=O)C2CCCN(c3nc4c(C)cc(C)cc4s3)C2)cc1OC (stereo unspecified)	-6%
Cc1ccccc1C(=O)N1CCN(c2ccc(NC(=O)c3cccnc3Cl)cc2)CC1	14%
N#C/C(=C\c1ccccc1)C(=O)NNS(=O)(=O)c1cccc([N+](=O)[O-])c1	?
CCCc1cnc2c(c1SCC(=O)NCc1ccc(C)cc1)c(=O)n(C)c(=O)n2C	5%
O=C(OCc1ccc([N+](=O)[O-])cc1)c1cnc(Cl)c(Cl)c1	11%
Cc1ccc(CNC(=O)NC2COc3ccccc3C2)cc1 (stereo unspecified)	10%
COc1ccccc1C(=O)NC1=NC(c2ccc(Br)cc2)CC(=O)N1 (stereo unspecified)	0%
COC(=O)c1ccc(C2=NOC(C)(c3sc(-c4ccc(Cl)cc4)nc3C)C2)cc1 (stereo unspecified)	7%
CCN(CC)CCn1c(/N=C/c2ccc(OC)c(OC)c2)nc2ccccc21	-16%
CC(C)(C)c1ccc2c(c1)OC(C(=O)N/N=C/c1ccc([N+](=O)[O-])o1)CO2 (stereo unspecified)	-16%
O=C1OC(c2ccccc2)c2ccc3ccccc3c21 (stereo unspecified)	-16%
Cc1[nH]c2c(C)cccc2c(=O)c1Br	7%
CCC(=O)Nc1ccc(C(=O)NNC(=O)c2ccc([N+](=O)[O-])cc2)cc1	-6%
O=c1oc2ccccc2c(NCc2ccccc2)c1[N+](=O)[O-]	-10%
(list continues)
SMILES	VDR inh
Nc1oc2ccccc2c(=O)c1-c1ccc2c(c1)OCO2	-2%
O=C(CSc1c2c(nc3ccc(Cl)cc13)CCCC2)NCc1ccccc1Cl	-6%
COC(=O)CCN(C(=O)c1ccc(C)c([N+](=O)[O-])c1)c1ccccn1	-3%
CCOC(=O)c1c(NC(=O)Cn2cnc([N+](=O)[O-])n2)sc2c1CCC(C)C2 (stereo unspecified)	4%
CCOC(=O)Cn1c(CN2CCN(C(c3ccccc3)c3ccccc3)CC2)nc2c1c(=O)n(C)c(=O)n2C	3%
COc1ccc(S(=O)(=O)NCCc2sc3nc(-c4ccc(C)cc4)nn3c2C)cc1C	8%
Cc1ccc(CCNC(=O)c2nnc(Cc3cccc(F)c3)o2)cc1	9%
COc1cccc(-c2ccc3ncnc(N4CCOCC4)c3c2)c1	-11%
CCOC(=O)c1c(C)oc2c1c(C(c1cccnc1)N1CCOCC1)c(O)c1ccccc12 (stereo unspecified)	?
CCOC(=O)Cn1nc(C)c(NC(=O)COc2ccc([N+](=O)[O-])cc2)c1C	4%
COc1ccc(CCNc2oc(-c3ccc(OC)c(OC)c3)nc2C#N)cc1	14%
CN(C)c1ccc(-c2cncnc2-n2ccnc2)cc1	45µM*
CN1CCN(S(=O)(=O)c2cccc(C(=O)Nc3cc(C(F)(F)F)ccc3N3CCCC3)c2)CC1	-12%
Cc1cc(=O)[nH]c(SCc2ccccc2)n1	11%
O=c1c2sc3ccccc3c2n(Cc2ccc(F)cc2)c(=O)n1Cc1ccccc1	-21%
COc1cc(NC(=S)NCCN2CCOCC2)cc(OC)c1	-13%
Cc1cc(N2CCN(c3ccc(F)cc3)CC2)n2nc(-c3ccc(Cl)cc3)nc2n1	-2%
COc1ccc(S(=O)(=O)NCCCCCC(=O)O)cc1C(=O)O	-25%
COc1cccc(NC(=O)CN(C)C(=O)c2ccc(S(=O)(=O)Nc3ccccc3C)cc2)c1	-17%
CCOC(=O)c1c(-c2ccc(OC)cc2)oc2ccc(OCC(N)=O)cc12	-21%
CC(Sc1nnc(-c2ccco2)n1-c1ccccc1)C(=O)NCC1CCCO1 (stereo unspecified)	-10%
O=C(Cc1ccc(S(=O)(=O)N2CCOCC2)s1)N1CCN(S(=O)(=O)c2cccc(F)c2)CC1	-9%
Cn1nnnc1SCC(=O)Nc1ccc(Oc2ccccc2)cc1	8%
Nc1nc(-c2ccc3c(c2)OCCO3)cs1	2%
CN1CCCCC1=NCCCn1cnc2c1c(=O)n(C)c(=O)n2C	-12%
Cn1nnnc1SCCNCc1ccc(OCc2ccccc2)cc1	-4%
O=C(Nc1ccccc1)N1CCn2c(nc3ccccc32)C1	-7%
Cn1c(=O)c2c(nc(CN3CCN(c4ccccc4)CC3)n2CCN2CCOCC2)n(C)c1=O	17%
CC(=O)OCC1=C(C(=O)OC(C)(C)C)N2C(=O)[C@@H](NC(=O)Cc3ccccc3)[C@H]2SC1	?
Cc1cccc(NC(=O)c2cc3c(n(-c4ccccc4)c2=O)CCCC3=O)n1	6%
COCC(C)NC(=O)c1cc2cc(OC)ccc2[nH]1 (stereo unspecified)	-3%
Cc1ccc(/C=C2/NC(=O)N(c3ccccc3)C2=O)o1	?
COC(=O)CSc1nnc(CNC(=O)c2cccc(C)c2)n1-c1ccccc1OC	7%
Cc1cc([N+](=O)[O-])cc2c1NC(=O)C2(O)N1CCCC(C)C1 (stereo unspecified)	-21%
CCCCCN(C(=O)CCC(=O)OCC(=O)N1CCCCC1C)c1c(N)n(CCCC)c(=O)[nH]c1=O (stereo unspecified)	-5%
Cc1cc(C)c(NC(N)=S)c(C)c1	3%
COc1cccc(CNC(=O)N2CCN(S(=O)(=O)c3ccc(C)cc3)CC2)c1	3%
CCOc1ccc(CCNC(=O)COC(=O)COc2ccccc2C)cc1OCC	-5%
COc1ccccc1N1CCN(Cc2nnc(-c3ccccc3C)o2)CC1	3%
CS(=O)(=O)N(CC(=O)N/N=C/c1ccccc1C(=O)O)c1cccc(Cl)c1Cl	6%
O=C1c2ccccc2C(=O)N1CN(C(=O)c1ccccc1[N+](=O)[O-])c1ccc(F)cc1	-7%
Cc1coc(C)c1C(=O)CC1(O)C(=O)N(C)c2ccc(Cl)cc21 (stereo unspecified)	-18%
Cc1csc(NC(=O)c2cccc(Cn3nc(C)c(Br)c3C)c2)n1	11%
CCOC(=O)c1sc(SCc2ccccc2)c2c1CC(C)(C)CC2=O	-10%
CN1C(=O)c2ccccc2C(C(=O)O)C1c1cccc(Cl)c1 (stereo unspecified)	-17%
c1ccc(N=P(N2CCOCC2)(N2CCOCC2)N2CCOCC2)cc1	8%
Cc1ccc(C(=O)N2CCN(C3CCCCC3)CC2)s1	10%
COc1ccc(NC(=S)N(CCN(C)C)C(C)c2ccco2)cc1 (stereo unspecified)	7%
N#CCCn1c(=O)c(CCc2ccccc2)nc2cnc(N3CCOCC3)nc21	4%
CC(C)n1c(=S)[nH]c2ccccc2c1=O	0%
CCOC(=O)C1=C(C)Nc2ccccc2N=C1N	-2%
Cc1no[n+]([O-])c1COc1cccc(/C=C2\N=C(c3ccccc3)OC2=O)c1	-5%
CCOC(=O)C1=C[C@@]2(CC)CCCN3CCc4c(n1c1ccccc41)C32 (stereo partly specified)	1%
COc1ccc(Cl)cc1NC(=O)c1cnc(N2CCCCC2)c2ccccc12	5%
COc1ccc(CCNC(=O)Cn2nc(C)c3c(C)n(-c4ccccc4)nc3c2=O)c(OC)c1	-1%
CCOC(=O)Cc1csc(NS(=O)(=O)c2cc(Cl)ccc2Cl)n1	-16%
CCc1ccc(NC(=O)/C(C#N)=C\c2ccc(OC)c(C(=O)O)c2)cc1	-19%
O=S(=O)(NCC1CCCO1)c1ccc(-c2ccc(Cl)cc2)cc1 (stereo unspecified)	-2%
CCc1ccc(-n2nnc(-c3nc(-c4cccs4)no3)c2N)cc1	17%
O=C(NCc1ccco1)/C(=C/c1ccc([N+](=O)[O-])cc1)NC(=O)c1ccco1	5%
The results go on.
SMILES	VDR inh
O=C(Nc1ccc2oc(-c3cccnc3)nc2c1)c1ccc2c(c1)OCCO2	-7%
Clc1ccc(CN2CCCCCCC2)cc1Cl	11%
COc1ccc(OCC(=O)NCc2nc(-c3ccccc3)no2)cc1	-16%
Cn1c(SCC(=O)Nc2ccc(Cl)cc2)nnc1C1CC1	-12%
COc1ccccc1NC(=O)CN1C(=O)NC2(CCCc3ccccc32)C1=O (stereo unspecified)	-15%
